KCNQ2 pot: KCNQ2 (rat) channel potentiation | AID 2239 | B-score at 10 µM | hit rate 0.54% among 310,000 | O88943 | CHO-K1 KCNQ2, FluxOR thallium flux fluorescence; hits give high values;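 active = fluorescence ratio B-score at least 3 SD of library B-scores, with initial fluorescence B-score within 3 SD, cut at about 5.3 in these data; same plate scores as AID 2156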;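 also: B-score of peak minus minimum over baseline fluorescence ratio after K+ and Tl+ stimulus; positive B-score means potentiation of KCNQ2 with more thallium influx and brighter signal; only the inactives scoring about 0 or higher are listed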
Target sequence (O88943 whole entry, looked up): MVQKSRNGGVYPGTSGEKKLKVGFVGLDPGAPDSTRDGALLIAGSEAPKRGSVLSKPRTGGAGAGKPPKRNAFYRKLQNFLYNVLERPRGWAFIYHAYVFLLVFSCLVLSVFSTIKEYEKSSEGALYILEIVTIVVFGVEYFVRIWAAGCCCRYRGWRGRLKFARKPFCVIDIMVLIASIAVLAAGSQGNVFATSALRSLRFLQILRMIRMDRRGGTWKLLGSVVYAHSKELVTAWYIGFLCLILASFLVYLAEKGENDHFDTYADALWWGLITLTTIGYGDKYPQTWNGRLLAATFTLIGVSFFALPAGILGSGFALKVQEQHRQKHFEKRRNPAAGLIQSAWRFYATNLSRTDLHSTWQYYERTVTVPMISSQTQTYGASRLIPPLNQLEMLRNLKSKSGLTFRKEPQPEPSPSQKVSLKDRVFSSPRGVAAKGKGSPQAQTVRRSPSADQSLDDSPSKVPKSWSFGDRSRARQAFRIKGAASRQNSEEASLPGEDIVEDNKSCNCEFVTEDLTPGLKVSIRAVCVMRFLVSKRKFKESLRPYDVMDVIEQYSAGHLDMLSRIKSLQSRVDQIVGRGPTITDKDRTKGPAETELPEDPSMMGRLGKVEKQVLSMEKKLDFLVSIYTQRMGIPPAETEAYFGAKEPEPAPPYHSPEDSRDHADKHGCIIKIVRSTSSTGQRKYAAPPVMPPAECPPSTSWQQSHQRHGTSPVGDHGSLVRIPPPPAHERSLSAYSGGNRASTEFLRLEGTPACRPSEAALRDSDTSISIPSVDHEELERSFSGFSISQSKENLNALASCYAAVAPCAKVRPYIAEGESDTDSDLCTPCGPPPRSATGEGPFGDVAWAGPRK
KCNQ2 pot baseline: second read-out of KCNQ2 pot, no call of its own (marks repeat the call); B-score; compound at 10 µM; measured here: initial fluorescence intensity artifact check;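 brightness before thallium and not channel activity; 0 = typical well and far values either way flag optical interference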
Active calls of the source: *. This is a subset, so the mix of outcomes need not match the whole.

nr	Compound	KCNQ2 pot baseline	KCNQ2 pot
1	COc1ccc(NC(=O)c2ccc(NC3CC(=O)N(c4ccc(C)cc4C)C3=O)cc2)cc1 (configuration not stated)	0.02	0.84
2	C=CCn1c(=S)[nH]c2scc(-c3ccc(C)o3)c2c1=O	0.98*	15.6*
3	COc1ccc(S(=O)(=O)N2CCN(C)CC2)cc1C	0.67	1.15
4	C=CCOn1c(C)c(C(C)=O)c2c3nonc3ccc21	0.65	1.11
5	O=C(N/C=C/c1ccco1)NCc1ccccc1	-0.49	1.01
6	COc1c(N2CCN(C(=S)NC3CC4CCC3C4)C(C)C2)c(F)cc2c(=O)c(C(=O)O)cn(C3CC3)c12 (configuration not stated)	0.12	0.34
7	Cn1c(SCC(=O)NC(C)(C)C)nnc1-c1cnccn1	0.4	0.06
8	Cn1cc(Cl)c(C(=O)Nc2nc3ccc(Cl)cc3s2)n1	-0.14	0.18
9	COc1ccc2c(=O)c(N3C(=O)c4ccccc4C3=O)c(C)oc2c1	-2.12	0.32
10	Cc1ccccc1NC(=O)CN1CCN(C(=O)c2ccco2)CC1	-0.51	1.63
11	Cc1ccc(C)c(CSC2=NN3CCCC(=O)N=C3S2)c1	-0.62	0.89
12	CCOC(=O)c1c2n(c3ccc(OC(C)=O)cc13)CCC2	0.65	1.56
13	CCOc1ccc(-c2cn(CCC#N)cn2)cc1	0.84	0.97
14	CCCN(CCC)Cc1c(C(=O)OCC)nnn1-c1nonc1N	1.89	0.67
15	COCCCC1CCN(C(=O)C2CCC(=O)N(Cc3ccccc3F)C2)CC1 (configuration not stated)	-1.74	0.72
16	COc1ccccc1NC(=O)CCCc1nnc2n(C)c(=O)c3sccc3n12	1.22	0.54
17	O=C(NCCc1ccc2c(c1)OCO2)C1CCN(S(=O)(=O)c2ccc(Cl)cc2)CC1	-0.8	0.88
18	COCc1c(C#N)c(NCCc2ccccc2)nc(C)c1[N+](=O)[O-]	-1.62	2.13
19	O=C(OCC(=O)c1c[nH]c2ccccc12)c1cccc(O)c1	-1.57	0.51
20	CC(C)OC(=O)c1ccc(NC(=S)NC(=O)c2cncc(Br)c2)cc1	-0.25	0.07

Compound profiles, as listed above.
Results for COCCCC1CCN(C(=O)C2CCC(=O)N(Cc3ccccc3F)C2)CC1 (configuration not stated) : KCNQ2 pot baseline: -1.74; KCNQ2 pot: 0.72
Results for O=C(NCCc1ccc2c(c1)OCO2)C1CCN(S(=O)(=O)c2ccc(Cl)cc2)CC1 : KCNQ2 pot baseline: -0.8; KCNQ2 pot: 0.88

(continued)
nr	Compound	KCNQ2 pot baseline	KCNQ2 pot
21	COc1ccccc1CCC(=O)Oc1ccccc1C#N	-1.62	0.01
22	O=C(O)CSc1cc(C(=O)c2cc(F)ccc2O)cn2c(=O)c3c(-c4ccccc4)csc3nc12	0.04	4.76
23	Fc1ccc(NC(=S)NNc2ncc(C(F)(F)F)cc2Cl)c(F)c1	0.24	0.12
24	CCc1ccc(N(C)S(=O)(=O)c2ccc3[nH]cc(C(=O)NCCN4CCOCC4)c(=O)c3c2)cc1	0.06	0.19
25	CCOC(=O)c1cc(C#N)c(NCc2ccccc2)nc1C	0.12	0.18
26	Cc1cc(NN)nc(NS(=O)(=O)c2ccccc2)n1	-0.15	0.07
27	CCOc1cc(CNCCc2c[nH]c3ccccc23)cc(Cl)c1OCC(N)=O	1.02	2.07
28	CC(C)CN1CCN(Cc2cccc3ncccc23)CC1CCO (configuration not stated)	-1.38	0.85
29	COc1ccc(-c2cc(C(=O)NC(C)C)no2)cc1	-0.39	1.16
30	COC(=O)C(NC(=O)c1ccccc1)=C1C=C(C)OC(C)=C1	2.57	5.01
31	COc1ccc(N2CCN(C(=S)Nc3cccc(C)c3C)CC2)cc1	-0.29	0.91
32	O=[N+]([O-])c1cccnc1SCc1ccccc1	-0.17	0.01
33	CC(C)NC(=S)Nc1c(N)[nH]c(=O)[nH]c1=O	-0.07	1.12
34	CS(=O)(=O)c1ccc2nc(N)sc2c1	-0.77	0.84
35	CC1(C)Cc2nc3nc(SCC(=O)Nc4ccccc4)nc(N)c3cc2CO1	-1.32	1.03
36	CC1=C(C#N)C(/C=N/OCc2ccc(F)cc2Cl)CC(=O)N1 (configuration not stated)	0.64	0.06
37	COCn1ccnc1C(O)(c1ccc(OC)cc1)c1ccc(OC)cc1	0.82	1
38	CCc1nc2ccc(C(=O)N(C)CC(=O)Nc3ccc(Cl)c(C(F)(F)F)c3)cc2nc1CC	-2.21	1.38
39	CC1(C)CC(=O)C(N=Nc2ccc(S(=O)(=O)N3CCOCC3)cc2)=C(O)C1	-0.07	0.74
40	Cc1ccc2nc(N3CCN(C(=O)c4ccco4)CC3)c3nncn3c2c1	-1.74	2.57
41	COc1ccc(Cc2nnc(SCC(=O)Nc3ccc(C)cc3C)[nH]c2=O)cc1	-0.12	0.52
42	CCOc1ccc(Nc2nc(Cc3nnc(SCC(=O)O)o3)cs2)cc1	1.14	0.08
43	Cc1cc(C)nc(Sc2ccc([N+](=O)[O-])cc2[N+](=O)[O-])n1	-0.04	0.6
44	COc1cccc(-n2nc(C(=O)N3CCN(Cc4ccccc4)CC3)c3ccccc3c2=O)c1	-1.66	0.26
45	C=CCn1c(O)c2ccc(C(=O)N=NC(=O)COc3ccc(OC)cc3)cc2c1O	1.59	0.02
46	CC1(NC(=O)C2CCN(C(=O)Nc3ccccc3)CC2)CCS(=O)(=O)C1 (configuration not stated)	-0.75	0.6
47	CCSc1nc(O)c(C2OC(=O)c3c2ccc(OC)c3OC)c(=O)n1-c1ccccc1 (configuration not stated)	-0.06	1.36
48	O=C(CSc1ccc(-c2ccncc2)nn1)N1CCCCC1	1.32	0.64
49	CC(C)(C)c1ccc(C(=O)N2CCC(C(=O)NCC3CCCO3)CC2)cc1 (configuration not stated)	0.78	0.86
50	Cc1ccc(-n2c3c(cc(C(=O)O)c2=O)C(=O)CC(C)(C)C3)cc1	-0.25	0.81
51	Cc1ccc(C(=O)c2cccc(N)c2)cc1C	0.01	0.74
52	O=C(Nc1ccc(C2=NCCN2)cc1)c1ccc(C(=O)Nc2ccc(C3=NCCN3)cc2)c([N+](=O)[O-])c1	1.14	0.01
53	Nc1nc(-c2ccccc2)cc(N2CCCCC2)n1	-0.2	1.92
54	O=C(CNC(=S)NC(=O)c1cccc([N+](=O)[O-])c1)c1ccccc1	-0.07	0.12
55	C=CCn1c(C(C)NC(=O)CCC)nc2ccccc21 (configuration not stated)	0.39	0.07
56	Cc1ccc(NC(=S)N(CCCN2CCC(C)CC2)Cc2ccco2)cc1C	-0.1	1.33
57	O=C(COC(=O)c1ccc2c(c1)OCO2)Nc1ccccc1	1.82	0.47
58	CCC(=O)Nc1ccc(NC(=O)CSc2nnc(-c3ccco3)n2C)cc1	-0.87	0.94
59	CC1=NN(C(N)=S)C(=O)C1N=Nc1cccc(C)c1 (configuration not stated)	0.2	1.97
60	O=C(c1ccc(NC2=NC3CS(=O)(=O)CC3S2)cc1)N1CCN(c2ccccc2)CC1 (configuration not stated)	1.01	0.18

Given with two lines to a compound: four of the compounds above.
Every second line gives: KCNQ2 pot baseline	KCNQ2 pot
#41 COc1ccc(Cc2nnc(SCC(=O)Nc3ccc(C)cc3C)[nH]c2=O)cc1
 : -0.12	0.52
#42 CCOc1ccc(Nc2nc(Cc3nnc(SCC(=O)O)o3)cs2)cc1
 : 1.14	0.08
#43 Cc1cc(C)nc(Sc2ccc([N+](=O)[O-])cc2[N+](=O)[O-])n1
 : -0.04	0.6
#44 COc1cccc(-n2nc(C(=O)N3CCN(Cc4ccccc4)CC3)c3ccccc3c2=O)c1
 : -1.66	0.26

(listing goes on)
nr	Compound	KCNQ2 pot baseline	KCNQ2 pot
61	CCCc1ccc2oc(C(=O)N3CCN(CCC(N)=O)CC3)c(C)c2c1	-0.01	2.8
62	COc1ccc(-c2nc(=S)c3ccc4ccccc4c3[nH]2)cc1	-1.43*	19.8*
63	O=C1CN(C(=O)CC2c3ccccc3-c3ccccc32)CC(=O)N1	0.33	0.16
64	CCCCCCCCNC(=O)/C(C#N)=C/c1ccc(SC)cc1	0.37	0.12
65	Cc1ccc(/C=N/NC(=O)c2cccnc2)s1	-0.36	0.32
66	Cn1cc(C(=O)c2ccc(F)cc2)cc1-c1nc2ccccc2n1C	-1.03	0.23
67	Nc1nonc1C(=O)NCCNCc1ccccc1	-0.5	0.42
68	CCC(C)N(C(=O)COC(=O)c1ccc(=O)n(Cc2ccccc2)n1)C1CCS(=O)(=O)C1 (configuration not stated)	0.55	0.02
69	CCOc1ccc(S(=O)(=O)NCC2CCCO2)cc1NC(=O)c1ccccc1F (configuration not stated)	-0.48	0.27
70	COc1ccc(/C(C)=N/NC(=O)Cn2nc([N+](=O)[O-])cc2C)cc1	-0.85	0.45
71	COc1ccc(NC(=O)N(CCN2CCCC2)Cc2cc3cc(OC)c(OC)cc3[nH]c2=O)cc1	-0.01	0.61
72	Cc1ccc(N2C(=O)c3n[nH]c(C)c3C2c2ccco2)cc1 (configuration not stated)	-1.07	0.87
73	Cc1c(CCO)c(=O)n(C)n1C(=O)c1ccc(Cl)cc1	0.01	0.5
74	O=S(=O)(CCN1CCN(C(c2ccccc2)c2ccccc2)CC1)C(F)(F)F	3.29	0.03
75	O=c1[nH]c2cc(Br)cnc2nc1/C=C(\O)c1ccc(F)cc1	0.41	0.27
76	O=C(/C=C/c1cccc([N+](=O)[O-])c1)N1CCOCC1	3.79	0.51
77	CCNCC(O)COCC(O)CNCC (configuration not stated)	-1.09	1.79
78	O=C(CC1C(=O)NCCN1Cc1cccc(C(F)(F)F)c1)NCCCOc1cccnc1 (configuration not stated)	-0.41	0.53
79	COc1cc(C(=O)N(Cc2ccc(C)o2)C2CCS(=O)(=O)C2)cc(OC)c1OC (configuration not stated)	-0.91	0.05
80	Cc1cc(C)nc(SCCc2ccncc2)n1	-0.79	0.73
81	O=C(NCC(=O)N(Cc1ccco1)C(C(=O)NC1CCCC1)c1cccnc1)c1ccco1 (configuration not stated)	-0.04	0.38
82	Cc1cc2nnc(SCC(=O)NCC(c3ccccc3)N(C)C)n2c2ccccc12 (configuration not stated)	1.06	0.41
83	COc1cc(OC)c(NC(=O)C2CCN(S(=O)(=O)c3ccc4c(c3)CC(C)N4C(C)=O)CC2)cc1Cl (configuration not stated)	-0.52	0.24
84	O=C(Cn1c2ccc(F)cc2c2nc3n(c(=O)c21)CCS3)NC1CCCC1	-2.22	0.11
85	Cc1cc(C)nc(N(C#N)Cc2ccccc2Cl)n1	1.05	0.32
86	CCOC(=O)c1sc(=S)n(-c2ccccc2)c1SC	-0.57	0.67
87	CC(=O)Nc1ccc(S(=O)(=O)N2CCC(C(=O)O)CC2)cc1	0.9	1
88	CC(Oc1ccc2c(c1)oc(=O)c1ccccc12)C(=O)NCCN1CCOCC1 (configuration not stated)	0.26	1.23
89	O=C(CN1CCN(C(c2ccccc2)c2ccccc2)CC1)Nc1ccc(N2CCOCC2)cc1	0.12	0.66
90	Cc1csc2ncnc(NC3CCN(Cc4ccccc4)CC3)c12	0.13	0.04
91	O=C(Nc1cccnc1)c1cc([N+](=O)[O-])ccc1Cl	-0.03	0.13
92	CCCc1c(C(=O)N/N=C(\C)c2ccc(O)cc2)nnn1-c1nonc1N	0.49	0.85
93	Brc1ccc2[nH]c3c(N4CCc5ccccc5C4)ncnc3c2c1	-1.09	0.67
94	COC(=O)c1ccc(NC(=O)Nc2ccc(OC)cc2)cc1	-0.34	2.14
95	N[C@@H](Cc1ccc(O)cc1)c1nnc([C@H](CO)NC(=O)C2CCNCC2)o1	-1.42	0.77
96	Cc1nc(C#N)c(NCc2ccc3c(c2)OCO3)o1	0.66	1.01
97	COc1ccccc1NC(=O)CCCC(=O)OCC(=O)c1ccc(F)cc1	1.37	1.14
98	O=C(CCc1nnc(-c2ccc3c(c2)OCO3)o1)NC(c1cccnc1)C(F)(F)F (configuration not stated)	2.03	0.89
99	O=[N+]([O-])c1ccc(CNc2ccc(Cl)cc2)s1	-0.77	1.48
100	O=C(Cc1ccc(Cl)cc1)Nc1ccc(S(=O)(=O)N2CCOCC2)cc1	0.08	1.43

Numbers 81 through 82 of the list above:
nr	Compound	KCNQ2 pot baseline	KCNQ2 pot
81	O=C(NCC(=O)N(Cc1ccco1)C(C(=O)NC1CCCC1)c1cccnc1)c1ccco1 (configuration not stated)	-0.04	0.38
82	Cc1cc2nnc(SCC(=O)NCC(c3ccccc3)N(C)C)n2c2ccccc12 (configuration not stated)	1.06	0.41

(list continues)
nr	Compound	KCNQ2 pot baseline	KCNQ2 pot
101	Cc1nnc(NC(=O)CN2CCN(Cc3ccc(F)cc3Cl)CC2)s1	-0.24	0.02
102	CCN(CC)CCCN(Cc1cc2cc(OC)ccc2[nH]c1=O)C(=O)Nc1ccc(F)cc1	1.86	0.49
103	N#CC1(c2ccccc2)CCC(=O)N1Cc1ccccc1 (configuration not stated)	-0.35	0.6
104	COc1ccc2ccccc2c1/C=N/N1C(=O)CSC1=S	-0.31	0.02
105	Clc1ccc(OCc2nn3c(-c4ccco4)nnc3s2)c(Cl)c1	-0.03	2.03
106	COCc1ccc(CN2CCCC(CCC(=O)NCc3ccc(C)o3)C2)o1 (configuration not stated)	0.43	0.74
107	O=C(COC(=O)[C@@H]1CCCN1S(=O)(=O)c1ccc(Cl)cc1)NC1CC1	0.19	0.66
108	Cc1ccc(C2=NS(=O)(=O)N(C)C(C(=O)NCc3cccs3)=C2)cc1	-1.17	0.08
109	CCN(CC)CCCn1c2c(c(SCC(=O)Nc3ccc4c(c3)OCCO4)nc1=O)CCC2	-1.13	3.12
110	COc1ccc(C2Nc3ccccc3C(=O)N2c2ccccc2)cc1CSc1ccccn1 (configuration not stated)	0	0.25
111	CC1=CC(=O)c2ccccc2C1=O	0.33	0.98
112	CCOC(=O)c1sc2nc(CC(=O)OC)nc(NCCN(CC)CC)c2c1C	0.79	1.54
113	CCC(C)NC(=O)Cn1cnc2sc(C)c(S(=O)(=O)N3CCN(c4ncccn4)CC3)c2c1=O (configuration not stated)	0.02	0.91
114	CC(C)N1CCN(Cc2cccn2-c2nccs2)CC1CCO (configuration not stated)	-0.07	0.35
